Screening results deposited in PubChem by several laboratories.
RecA intein inh – Mtb RecA intein splicing inhibitors, primary screen, biochemical, fluorescence, HTS. Protein RecA (Mycobacterium tuberculosis (strain ATCC 25618 / H37Rv)), P9WHJ3. cell-free RecA intein splicing. inhibition, %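 (about 9 µM by stock and volumes)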. 290,000 compounds, 0.75% hits. AID 2221, 2009; in the data active = inhibition above about 30%; inconclusive = no clear call, values can overlap the other calls;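 also: 0% = vehicle wells and 100% = reference inhibitor control wells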
Target sequence (P9WHJ3 whole entry, looked up): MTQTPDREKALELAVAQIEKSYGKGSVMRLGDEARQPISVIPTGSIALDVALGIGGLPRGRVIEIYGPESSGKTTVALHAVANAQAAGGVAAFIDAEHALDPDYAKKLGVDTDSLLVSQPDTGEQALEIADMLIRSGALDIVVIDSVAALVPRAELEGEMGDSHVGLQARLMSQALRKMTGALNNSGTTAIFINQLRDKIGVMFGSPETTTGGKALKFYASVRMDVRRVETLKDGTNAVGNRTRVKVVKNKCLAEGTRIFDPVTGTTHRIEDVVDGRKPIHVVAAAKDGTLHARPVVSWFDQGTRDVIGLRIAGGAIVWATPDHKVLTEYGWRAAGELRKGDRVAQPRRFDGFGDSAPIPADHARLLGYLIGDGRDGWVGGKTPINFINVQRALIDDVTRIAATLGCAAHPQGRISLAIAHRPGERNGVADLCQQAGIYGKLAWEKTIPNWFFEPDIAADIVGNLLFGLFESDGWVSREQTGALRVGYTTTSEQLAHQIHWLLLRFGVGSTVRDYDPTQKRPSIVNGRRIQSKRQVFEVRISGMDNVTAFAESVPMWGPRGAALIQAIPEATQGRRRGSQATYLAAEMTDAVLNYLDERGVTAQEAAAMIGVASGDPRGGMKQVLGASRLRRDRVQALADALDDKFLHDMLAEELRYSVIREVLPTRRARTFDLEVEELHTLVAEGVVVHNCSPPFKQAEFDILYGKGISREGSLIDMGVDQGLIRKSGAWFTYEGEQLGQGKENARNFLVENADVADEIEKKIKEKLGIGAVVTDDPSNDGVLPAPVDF
Mtb betalactam – beta-lactam sensitization of Mtb H37Rv, H37Rv. inhibition, % at 25 µM. AID 434955, 2010. M. tuberculosis H37Rv growth with meropenem, percent inhibition; hits of this screen are not shown here. 330,000 compounds, 0.27% hits;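 active = about 74% or more and at least 40 points above the plate without the antibiotic, then above 30% in a dose series; inconclusive = first-round hits that could not be retested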;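 also: growth measured after seven days incubation then overnight dye step; 0% = bacteria only wells and 100% = bacteria with antibiotic; twin plates without the antibiotic show which effects depend on it; some results filed as inactive read as strong as hits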
Mtb growth – M. tuberculosis H37Rv growth inhibitors, H37Rv strain (AID 1626) | M. tuberculosis H37Rv growth inhibition; higher % means a stronger effect | inhibition, % at 10 µM, or IC50 in µM where a hit was titrated | 220,000 compounds, 0.95% hits;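 active = confirmed in a dose series; inconclusive = inhibition above 80% but not taken into the dose series; inactive = below 80% or under 30% at every dose of the series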;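 also: bacteria incubated seven days before Alamar blue readout; 0% = bacteria only wells and 100% = bacteria with antibiotic wells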
Arbovirus inh – antivirals against arbovirus infection, primary screen, cell-based, full library, 10K replicate subset; arbovirus infection cell-based antiviral screen; inhibition, % at 10 µM; 200,000 compounds, 0.37% hits; AID 1251, 2008;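 active = inhibition from about 30%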;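 also: bluetongue infection of BSR cells; cell survival read as ATP light after 72 h; 0% = infected wells without compound and 100% = uninfected wells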
YopH PTP inh – YopH tyrosine phosphatase inhibitors, primary screen, biochemical, fluorescence Ex485/Em525. YopH tyrosine phosphatase [Yersinia enterocolitica]. inhibition, %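 (about 10 µM by stock and volumes)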. 140,000 compounds, 0.16% hits. AID 898, 2007;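 active = inhibition of 50% or more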;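 also: controls were vehicle for no effect and minimum signal wells for full effect; inactives centre near -20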
Arbovirus inh repeat – further read-out of Arbovirus inh, marked with its call; inhibition, %; measured here: 10K subset replicate screen; many hits read low in the repeat;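 first of two repeat runs on a subset; 0% = infected and 100% = uninfected wells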
Active calls of the source: *; ? = inconclusive; . = not tested or not shown; & = joins results of further samples. Only part of the results is shown (hit frequency here may not be typical).

SMILES	RecA intein inh	Mtb betalactam	Mtb growth	Arbovirus inh	YopH PTP inh	others
CCC(=O)N(CCc1ccccc1C)Cc1cc2cc3c(cc2[nH]c1=O)OCO3	1.9	1	8%	-23	-29
COc1cc2nc(N3CCN(C(=O)C4CCCO4)CC3)nc(N)c2cc1OC (stereo not given)	-1.7&-4.1	-6&3	0%&-10%&6%	-7&0&-2	-46&0
COc1ccc(NC(=O)CN(C)C(=O)c2cc(S(=O)(=O)N(C)C)ccc2N2CCCC2)cc1	1.0	-12	.	.	.
Cc1ccc(C(=O)N/C(=C/c2ccc(Cl)cc2)C(=O)Nc2cccc(C(=O)O)c2)cc1	-4.9	-1	1%	9	-19
CCNC(=O)N(C)c1nncnc1C(=O)NC	-1.6	.	.	1	-2
N#C/C(=C\c1ccc(/C=C(/C#N)c2nn(CCO)c(N)c2C#N)cc1)c1nn(CCO)c(N)c1C#N	-6.7	1	-2%	1	-7
COc1cc(C(=O)OCC(=O)N2CC(C)OC(C)C2)cc(OC)c1OC (stereo not given)	2.0	5	.	.	.
O=C(NCCC1=CCCCC1)c1cc(COc2ccc(F)cc2Cl)on1	-5.9	16	.	.	.
COc1ccc2cnn(-c3ccc(OC(F)(F)Cl)cc3)c(=O)c2c1OC	0.0	-6	0%	.	.
CC1(C)CC(=O)C2=C(C1)Nc1ncnn1C2c1cccs1 (stereo not given)	3.2	-2	9%	16	.
NS(=O)(=O)c1ccc(Nc2c([N+](=O)[O-])cncc2[N+](=O)[O-])cc1	9.5	0	.	.	.
C/C(=C\C(=O)c1ccc(Br)cc1)Nc1cccc(Cl)c1	3.9	42	10%	.	-13
O=C(CCN1C(=O)/C(=C/c2ccc3c(c2)OCO3)SC1=S)NNC(=O)c1cccnc1	5.0	5	0%	9	.
CC(C(=O)N1CCN(c2ccccc2)CC1)c1ccc([N+](=O)[O-])cc1 (stereo not given)	1.7	-15	.	.	.
COCc1nnc(NC(=O)c2cccs2)s1	-0.4	-15	3%	0	-34
O=C(O)CCSc1nc2ccccc2s1	0.2	-4	0%	10	1
COc1ccccc1OCCCn1cc(C(=O)C2CC2)c2ccccc21	6.9	5	-2%	-1	.
COc1cccc(C2=N/C(=C\N(C)C)C(=O)O2)c1	-1.4	8	10%	10	-21	Arbovirus inh repeat=0
CC(NC(=O)c1nn(C)c(=O)c2ccccc12)c1ccc(F)cc1 (stereo not given)	0.6	-8	-3%	-8	-38
CCOc1ccc(S(=O)(=O)N2CCC(C(=O)NCc3cccnc3)CC2)cc1	1.1	-15	.	.	.

A section taken from the entries so far, as a working copy:
SMILES	RecA intein inh	Mtb betalactam	Mtb growth	Arbovirus inh	YopH PTP inh	others
CCC(=O)N(CCc1ccccc1C)Cc1cc2cc3c(cc2[nH]c1=O)OCO3	1.9	1	8%	-23	-29
COc1cc2nc(N3CCN(C(=O)C4CCCO4)CC3)nc(N)c2cc1OC (stereo not given)	-1.7&-4.1	-6&3	0%&-10%&6%	-7&0&-2	-46&0

Next part
SMILES	RecA intein inh	Mtb betalactam	Mtb growth	Arbovirus inh	YopH PTP inh	others
N#CCCN(C1CCCCC1)S(=O)(=O)c1cccc2nsnc12	1.7	2	1%	10	-38
Oc1cccc(-c2nc3ccccc3s2)c1	3.3	93	.	6	4
CCOC(=O)NC1(C(F)(F)F)NC(=O)N(c2cccc(C(F)(F)F)c2)C1=O (stereo not given)	-0.9	5	4%	0	-17
COc1ccc(N2CCN(CCCNC(=O)Cn3c(=O)c4cccn4c4ccccc43)CC2)cc1	-1.6	1	.	.	.
CC#CCN1c2ccccc2[C@]23C[C@@H](C(=O)OC)N(C(=O)C4CCC4)C2=NC(C(=O)OC)=C(C(=O)OC)[C@H]13	6.6	-6	1%	.	.
COc1ccc(/C=N/N=C2/NC(=O)C(CC(=O)O)S2)cc1OCc1ccccc1Cl (stereo not given)	-2.3	1	8%	-16	-22
Nc1ccccc1Nc1cc(-c2ccccc2)nn1-c1ccccc1	9.5	5	6%	1	-12
O=S(=O)(c1ccccc1)[C@@]1(c2ccccc2)C[C@@H]2ON=C(c3cccc(-c4ccccc4)c3)[C@@H]2C1	0.7	-25	.	.	.
CCC(=O)NC(=S)Nc1cccc(NC(=O)c2ccco2)c1	-0.7	2	2%	2	.
Cc1cc(C)c(C)c(OCCOCCN2CCN(C)CC2)c1	-1.5	2	-9%	-16	-21
COc1cccc(CN2C(=O)CCC2(C)C(=O)NC2CCCCC2)c1 (stereo not given)	-1.4	-1	-7%	11	-19	Arbovirus inh repeat=4
CCn1c(=O)c2sccc2n2c(CCCC(=O)NCCc3ccc(S(N)(=O)=O)cc3)nnc12	-2.5	3	.	.	.
O=C1c2cccc3cc([N+](=O)[O-])cc(c23)C(=O)N1/N=C/c1ccc(O)cc1O	-60	90	?	.	.
Cc1ccc(C)c(NC(=O)CS(=O)(=O)c2c[nH]c3ccccc23)c1	-9.0	?	-15%	3	-40	Arbovirus inh repeat=6
S=C(c1cn(Cc2ccc(Br)cc2)c2ccccc12)N1CCOCC1	8.7	2	8%	6	-24
O=C(NC1CCCCC1)N1CCc2[nH]c3ccccc3c2C1	-21	-3	3%	-13	-20
Cc1ccccc1CNC(=O)C1CCC(=O)N(C2CC2)C1 (stereo not given)	0.8	-3	.	.	.
C[C@]12CCC(=O)C=C1CC[C@@H]1[C@@H]2CC[C@@]2(C)[C@H]1CC[C@]2(C)O	.	.	7%	1	.
O=C(Oc1ccc(OC(=O)C2CCC2)cc1)C1CCC1	-2.8	4	3%	11	31
C=CCSc1nnc(C)n1-c1ccc(Cl)cc1	0.2	5	-5%	-1	5

2 compounds picked at random from those above, as already listed:
SMILES	RecA intein inh	Mtb betalactam	Mtb growth	Arbovirus inh	YopH PTP inh	others
COc1ccccc1OCCCn1cc(C(=O)C2CC2)c2ccccc21	6.9	5	-2%	-1	.
C/C(=C\C(=O)c1ccc(Br)cc1)Nc1cccc(Cl)c1	3.9	42	10%	.	-13

Going on with the list:
SMILES	RecA intein inh	Mtb betalactam	Mtb growth	Arbovirus inh	YopH PTP inh	others
CCN(CCCNC(=O)COc1cc(=O)n(CC)c2ccccc12)Cc1ccccc1	-0.4	?	-1%	-15	-21
Cc1ccccc1NC(=S)N(Cc1cccs1)C1CCCC1	0.5	-3	-1%	9	.
O=C(Nc1ccc2c(c1)CCC2)Nc1ccc(F)cc1F	-2.1	10	.	.	.
CCOc1ccccc1NC(=O)C1CCC(CNc2c(N3CCOCC3)c(=O)c2=O)CC1 (stereo not given)	1.4	-2	10%	0	3	Arbovirus inh repeat=-2
Cc1noc(NC(=O)c2ccc(F)cc2)c1C#N	0.9	0	7%	1	-14
COc1ccc(C(=O)OCC(=O)NCCCc2ccccc2)cc1OC	4.5	-6	.	.	.
Cc1cc(C)nc(N2N=C(c3ccccc3)CC2=O)n1	.	-11	-4%	3	.
O=C(CCN1C(=O)c2ccccc2C1=O)OCN1C(=O)c2ccccc2C1=O	5.8	6	-5%	13	-7
COc1ccc(C(=O)Nc2nnc(S(=O)(=O)Cc3ccccc3)s2)cc1	0.2	7	.	.	.
CCCCn1c(N)c(N(CCOC)C(=O)c2ccc(NC3CC3)c([N+](=O)[O-])c2)c(=O)[nH]c1=O	0.4	-15	.	.	.
COc1ccc(C(=O)Nc2ccccc2C(=O)N/N=C/c2ccccn2)cc1OC	-5.3	52	-1%	.	.
CCOC(=O)c1ccccc1NC(=O)CSc1ccc(-c2ccccn2)nn1	-1.2	100	.	.	.
Cc1ccc(CNC(=O)C(=O)NCCC2CCCCN2S(=O)(=O)c2ccccc2)cc1 (stereo not given)	-2.0	-11	.	.	.
Cn1cc(CN2CCC(n3nccc3NC(=O)C3CCCC3)CC2)cn1	-3.1	-4	.	.	.
CCOc1ccc(S(=O)(=O)N2CCCCC2)cc1NC(=O)C1=COCCO1	1.1	-7	.	.	.
CCOc1ccc(N(CC(=O)Nc2nccs2)S(=O)(=O)c2c(C)noc2C)cc1	-1.3	8	0%	-4	-42	Arbovirus inh repeat=2
O=C(NCCCN1CCOCC1)c1cc(-c2ccc(F)cc2)no1	3.6	5	.	.	.
O=C(Nc1ccc(F)cc1F)N1CCN(c2ncccn2)CC1	0.0	-7	-3%	15	-28	Arbovirus inh repeat=3
CCOc1cc(NC(=O)c2cccs2)c(OCC)cc1NC(=O)CCC(=O)NCC1CCCO1 (stereo not given)	-1.1	-1	6%	-6	.
O=C(CSc1ccc(-c2ccc(-n3cccn3)cc2)nn1)Nc1ccccc1F	-1.5	-2	.	.	.

Ordered by molar mass (highest first): four of the compounds above.
SMILES	RecA intein inh	Mtb betalactam	Mtb growth	Arbovirus inh	YopH PTP inh	others
N#C/C(=C\c1ccc(/C=C(/C#N)c2nn(CCO)c(N)c2C#N)cc1)c1nn(CCO)c(N)c1C#N	-6.7	1	-2%	1	-7
COc1cc(C(=O)OCC(=O)N2CC(C)OC(C)C2)cc(OC)c1OC (stereo not given)	2.0	5	.	.	.
C/C(=C\C(=O)c1ccc(Br)cc1)Nc1cccc(Cl)c1	3.9	42	10%	.	-13
Cc1cc(C)c(C)c(OCCOCCN2CCN(C)CC2)c1	-1.5	2	-9%	-16	-21

Next results
SMILES	RecA intein inh	Mtb betalactam	Mtb growth	Arbovirus inh	YopH PTP inh	others
Cc1cc(C2C(C#N)=C(N)OC3=C2C(=O)CC(C)(C)C3)c(C)s1 (stereo not given)	7.6	-10	1%	4	6
Nc1nonc1-n1nnc(C(=O)N/N=C/c2cccc(F)c2)c1-c1ccc2c(c1)OCO2	-0.5	2	.	.	.
O=C(N/N=C/c1ccc(O)cc1O)c1ccc(NC(=O)C2CCCCC2)cc1	-3.2	10	.	.	.
O=C(COC(=O)c1cccc(S(=O)(=O)N2CCN(c3ccc(F)cc3)CC2)c1)NCC1CCCO1 (stereo not given)	0.8	-5	6%	9	.
Cc1cc(C)cc(NC(=O)CCNS(=O)(=O)c2ccc3c(c2)oc(=O)n3C)c1	2.2	-4	-8%	-1	-10
COC(=O)c1ccc(NS(=O)(=O)c2ccc3c(c2)oc(=O)n3C)cc1	-1.7	0	-8%	5	-52	Arbovirus inh repeat=9
C1CNCCOCCNCCN1	-4.8	-4	-2%	4	-30
CCC1CCCCN1C(=O)CSc1nc2c(cnn2-c2ccc(C)cc2)c(=O)[nH]1 (stereo not given)	0.8	2	7%	-4	4	Arbovirus inh repeat=-13
COc1ccc(-n2nc(C(=O)NCC(=O)NCC3CCCO3)c3ccccc3c2=O)cc1 (stereo not given)	0.7	0	-5%	4	3
O=C(COC(=O)c1cc(-c2cccs2)nn1-c1ccccc1)Nc1ccc(F)c([N+](=O)[O-])c1	12	39	3%	-1	-21
COc1ccc(-c2nc(CSCC(=O)NCc3ccc4c(c3)OCO4)c(C)o2)cc1OC	1.5	0	-4%	-11	-31	Arbovirus inh repeat=-7
O=C(CN1C(=O)NC2(CCCc3ccccc32)C1=O)Nc1cc(F)ccc1F (stereo not given)	-1.5	-3	.	.	.
O=C(NC1CCCC1)C(c1ccncc1)N(C(=O)Cc1cccs1)c1cccc(F)c1 (stereo not given)	-5.7	-11	.	.	.
N#Cc1sc(NCc2ccccc2)nc1Cl	11	-4	12%	0	.
O=C(Nc1ccc(Br)cc1)C1CC(O)CN1C(=O)OCc1ccccc1 (stereo not given)	-2.1	-10	.	.	.
COc1ccc(CNC(=S)Nc2cccc(C)c2C)cc1	-0.9	-10	9%	11	-4
